HCMV NEC inh: disrupts HCMV UL50-UL53 complex binding. AID 1918969. 190,000 tested, 0.15% active. HTRF UL50-UL53 interaction, normalized percent inhibition. inhibition, % (concentration not given with the values);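 active = both replicates at 50% or more, plus weaker picks with an unusually low signal ratio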;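 note: stock transfer was 100 nL into about 20 µL; 0% = negative control wells and 100% = wells with untagged competitor protein; inactives centre near -12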
GIV Gai3 FP: blocks GIV peptide binding to rat Galpha-i3. 210,000 tested, 0.42% active. Galpha-i3/FITC-GIV peptide fluorescence polarization, 90 min; active compounds read low; scaled: aluminum fluoride 0%, vehicle 100%. percent of control (FP), % (no concentration beside the values). P08753. AID 1224905;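 active = replicate mean at 85% of control or lower, very high polarization wells dropped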;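 note: wells of about 15 µL received 100 nL stock; the first replicate is given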
Target sequence (P08753 whole entry, looked up): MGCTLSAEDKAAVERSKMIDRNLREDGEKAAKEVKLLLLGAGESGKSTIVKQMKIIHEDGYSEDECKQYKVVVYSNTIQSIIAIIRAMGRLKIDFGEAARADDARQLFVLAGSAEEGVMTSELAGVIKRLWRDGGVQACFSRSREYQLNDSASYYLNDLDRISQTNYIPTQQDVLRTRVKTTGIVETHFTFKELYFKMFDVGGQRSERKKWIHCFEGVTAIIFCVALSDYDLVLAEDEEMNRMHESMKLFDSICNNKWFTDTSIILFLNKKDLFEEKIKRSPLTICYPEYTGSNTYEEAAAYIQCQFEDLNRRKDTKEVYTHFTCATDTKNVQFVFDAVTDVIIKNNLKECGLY
Sa growth inh: S. aureus growth inhibition | S. aureus RN4220 growth, OD600, 20 h, 42 °C; active compounds read low | relative growth, % (concentration not given with the values) | 170,000 tested, 0.53% active | AID 720641;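 active = growth at 42 °C up to 50% and 20 or more points under that at 30 °C, or under 10% at both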;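 note: 300 nL library stock went into each well; scaled to the means of positive and negative controls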
Sa growth inh second temp: further read-out of Sa growth inh, marked with its call; relative growth, %; measured here: growth at 30 °C;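 optical density after 20 h as mean of two plates; 100% = untreated growth and lower means inhibition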
* hit, by the source's call; x = no result given; & = joins results of further samples.

nr | Compound | GIV Gai3 FP | Sa growth inh second temp | Sa growth inh | HCMV NEC inh
1 | Cn1cc(S(=O)(=O)N2CCCCCC2)cc1C(=O)N1CCN(c2cccc(Cl)c2)CC1 | 101 | 85 | 107 | x
2 | Cc1ccc2nc(N(Cc3cccnc3)C(=O)CCc3ccccc3)sc2c1 | 104 | 90 | 125 | x
3 | Cc1cccc(OCc2nnc(SCC(N)=O)o2)c1 | 104 | 91 | 96 | -29
4 | CCC(C(=O)Nc1ccc(F)cc1F)n1nc(C)c2c(C)n(-c3ccccc3)nc2c1=O (stereo not drawn) | 94 | x | x | -14
5 | Cc1cc(C)n2c(Nc3ccc4c(c3)OCCO4)c(-c3ccccc3)nc2n1 | 99 | 70 | 107 | 1
6 | Brc1cc2c(cc1CSc1nnc(-c3c[nH]c4ccccc34)o1)OCO2 | x | 94 | 84 | -30
7 | COc1ccc(Nc2ncc(C#N)c(N)n2)c(OC)c1 | 101 | 87 | 89 | -38
8 | O=C(Cn1cncn1)N/N=C/c1ccccn1 | x | 102 | 108 | -1
9 | Cc1ccc(NC(=O)C2CCN(S(=O)(=O)c3cccc4nsnc34)CC2)cc1 | 102 | 97 | 103 | -52
10 | O=C(Nc1cccc(F)c1)c1oc2ccccc2c1NC(=O)C12CC3CC(CC(C3)C1)C2 | 100 | 87 | 95 | -8
11 | O=c1c(=O)n(-c2ccccc2)ccn1Cc1cccc(F)c1 | 106 | x | x | -36
12 | Cc1nc2nc(SCC(=O)Nc3ccccc3C(F)(F)F)nn2c(C)c1Cc1ccccc1 | 101 | 84 | 112 | x
13 | CCOC(=O)Cn1c(=O)oc2cc(S(=O)(=O)N(C)Cc3ccccc3)ccc21 | 103 | 85 | 93 | -1
14 | CC(=O)Nc1ccc(-n2c(CCC(=O)O)ccc2-c2ccc(C)cc2)cc1 | 102 | 77 | 85 | -40
15 | CC(=O)N1c2ccccc2C(N(C(=O)CN2C(=O)c3ccccc3C2=O)c2ccccc2)CC1C (stereo not drawn) | 100 | x | x | -15
16 | CCOC(=O)C1CCN(S(=O)(=O)c2cc(-c3cc(C)no3)ccc2OC)CC1 | 104 | 90 | 111 | x
17 | CCc1ccc2oc(C(=O)N3CCN(C)CC3)cc(=O)c2c1 | 96 | x | x | -14
18 | CCn1ccc2cc(S(=O)(=O)N3CCC(C(=O)NCc4ccc(F)cc4)CC3)ccc21 | 99 | 90 | 93 | x
19 | N#CCC(=O)N(c1nccs1)C1CCCCC1 | x | 81 | 86 | 9
20 | CCCC(C)C(=O)Nc1ccc(OC)cc1 (stereo not drawn) | 102 | 103 | 119 | -16
21 | Cc1cccc(C(=O)NC(C)C(=O)Nc2ccnn2C2CCCC2)c1 (stereo not drawn) | x | 104 | 96 | 4
22 | CC(C)(C)NC(=O)c1cccc2ccccc12 | 109 | 90 | 112 | 2
23 | CCc1cccc(NC(=O)Cn2c(C(=O)OC)cc3oc4ccccc4c32)c1 | 95 | 91 | 114 | -12
24 | CCCc1noc2c1/C(=N\O)CC(CC(C)SCC)C2 (stereo not drawn) | 98 | 84 | 86 | 8
25 | CC1=NN(c2nc3ccccc3s2)C(=O)C1 | 104 | 82 | 92 | -38
26 | CCOC(=O)CN1CC23C=CC(O2)C(C(=O)Nc2cccc(F)c2)C3C1=O (stereo not drawn) | 109 | 91 | 83 | -26
27 | CCOC(=O)c1c(C)oc2nc(C)nc(NCC3CCN(Cc4cc(C)ccc4C)CC3)c12 | 102 | 96 | 74 | x
28 | CCn1c(SCC(=O)Nc2ccc3[nH]c(=O)[nH]c3c2)nnc1-c1cccs1 | x | 97 | 81 | 22
29 | O=c1nc(SCc2ccccc2Cl)c2c(n1C1CCCC1)CCC2 | 109 | x | x | -22
30 | COc1cc2c(cc1OC)C(C)N(C(=O)c1ccco1)CC2 (stereo not drawn) | 103 | 109 | 98 | -6
31 | Cc1c(CC(=O)NCCc2ccccc2)c(=O)oc2c(C)c3occ(C(C)(C)C)c3cc12 | 105 | 94 | 108 | -24
32 | Cc1ccccc1NC(=S)Nc1ccccc1C(=O)Nc1ccc(F)cc1 | 108 | 70 | 104 | -31
33 | c1cc2cn[nH]c2cc1NC1CCCCCC1 | 107 | 36 | 67 | 10
34 | N#CC1=C(SCC(N)=O)NC2=C(C(=O)CCC2)C1c1ccccc1Cl (stereo not drawn) | 104 | 81 | 97 | -47
35 | C=CCNC(=O)C1CC(=O)N(c2ccc(F)c(Cl)c2)C1 (stereo not drawn) | 99 | 81 | 88 | 2
36 | O=C(Cn1c(Cc2ccccc2)nc2sc3c(c2c1=O)CCCC3)Nc1ccccc1Cl | 97 | x | x | -4
37 | CCN1C(=O)C2CCCCN2c2ccc(C(=O)N3CCN(c4ccccc4)CC3)cc21 (stereo not drawn) | 100 | x | x | -23
38 | CCCCn1c(C(O)c2ccccc2)nc2ccccc21 (stereo not drawn) | 105 | 65 | 90 | 7
39 | COc1ccc(/C=C2\SC(=S)N(CC(=O)Nc3ncc(Cc4cccc([N+](=O)[O-])c4)s3)C2=O)cc1OC | 106 | x | x | -6
40 | COc1ccc(CCNC(=O)C(=O)NCC(c2ccco2)S(=O)(=O)c2ccccc2)cc1OC (stereo not drawn) | 101 | 84 | 127 | x
41 | CCc1ccc(-n2c(=O)c3cccnc3n2CC(=O)Nc2cc(OC)ccc2OC)cc1 | 102 | 86 | 94 | x
42 | Cc1nc2sc(C(=O)NC3CCC(C)CC3)c(C)c2c(=O)[nH]1 (stereo not drawn) | x | 100 | 104 | -15
43 | CCOC(=O)CC(NC(=O)CCc1c(C)nc2c(c(C)nn2-c2ccc(C)c(C)c2)c1C)c1ccc(C)cc1 (stereo not drawn) | 113 | 99 | 81 | -7
44 | CN1/C(=C\C(=O)CSc2nncs2)C(C)(C)c2ccccc21 | x | 90 | 91 | -21
45 | O=C(CSc1ncnc2c1nnn2Cc1ccc(F)cc1)OCc1ccccc1 | 101 | 92 | 109 | x
46 | COc1cc(C2NC(=O)C(C#N)=C(Nc3cccc(C)c3)S2)ccc1O (stereo not drawn) | 101 | 76 | 88 | -14
47 | Cc1ccc(C(=O)COC(=O)CC2CC3CCC2C3)cc1 (stereo not drawn) | x | 100 | 100 | 6
48 | N#Cc1c(Cl)cccc1-n1ccnc1 | 108 | 64 | 91 | -23
49 | COc1ccc(CNc2ccc3[nH]c(=O)[nH]c3c2)cc1OC | 101 | 92 | 131 | -12
50 | Cc1ccc(-n2ncc3c(NC4CCCCC4)ncnc32)cc1C | 105 | 91 | 131 | x
51 | CC(C)NC(=O)CSc1nc(-c2ccccc2)cc(=O)[nH]1 | 102 | 99 | 102 | -10
52 | COc1ccc(OC)c(NC(=O)Cn2c(=O)oc3cc(Cl)ccc32)c1 | x | 83 | 87 | -1
53 | Cc1cccc(C)c1NC(=O)CN1c2ccccc2CC1C (stereo not drawn) | x | 96 | 101 | -11
54 | Cc1ccc(C)c(N2CCN(C(=O)Cn3c(=O)c4cccn4c4ccc(F)cc43)CC2)c1 | 99 | 103 | 109 | 2
55 | Cc1ccc(C(=O)N/C(N)=N/c2nc3ccccc3o2)cc1 | 103 | 92 | 101 | x
56 | C[C@@H]1CN(c2c(F)c(N)c3c(=O)c(C(=O)O)cn(C4CC4)c3c2F)C[C@H](C)N1 | 102 | 0.1* | -0.1* | -50
57 | Cc1nc2cccnc2n1-c1cc(C(=O)NC2CCCC2)ccc1Cl | 106 | x | x | -4
58 | O=C(O)c1cc(-c2ccc(Cl)cc2)cc2ccccc12 | 106 | 76 | 93 | x
59 | CCN=c1scc(-c2ccc(C)cc2)n1/N=C(\C)c1ccc(C)o1 | x | 88 | 91 | -9
60 | COc1cc(NC(C)=O)c(C(=O)c2nccc3cc(OC)c(OC)cc23)cc1OC | 104 | 94 | 79 | 0

(cont.)
nr | Compound | GIV Gai3 FP | Sa growth inh second temp | Sa growth inh | HCMV NEC inh
61 | OCCNc1ncnc2ccc(Br)cc12 | 109 | 94 | 95 | -19
62 | COCCNC(=O)CSc1nnc(-c2ccncc2)o1 | 97 | x | x | -30
63 | CC1C(=O)CC(c2ccccc2)N(C)C1c1ccccc1 (stereo not drawn) | 99 | 88 | 100 | -4
64 | Nc1nc2ccccc2n1C(=O)CCc1ccccc1 | 105 | 104 | 99 | 6
65 | CCc1ccc2c(c1)=C(c1sc(Nc3cccc(Cl)c3C)nc1O)C(=O)N=2 | 100 | 93 | 108 | x
66 | CCN(CC)C(=O)c1ccc2ccccc2n1 | x | 90 | 77 | -7
67 | Oc1c(Cl)cc(Cl)cc1/C=N/c1ccnn1-c1ccccc1 | 167 | 89 | 93 | -20
68 | COCCNc1nc(SC)nc(-c2ccccc2)c1C#N | 100 | 90 | 91 | -3
69 | NC(=O)C1CCN(CC(O)COc2ccc(Cl)c(Cl)c2)CC1 (stereo not drawn) | 97 | 104 | 105 | -1
70 | COc1ccc(C(=O)N/C=C/n2cnc3cc(C(F)(F)F)ccc32)cc1 | x | 102 | 97 | 8
71 | CCC1CCC(=O)C(C2(O)C(=O)Nc3ccccc32)C1 (stereo not drawn) | 102 | x | x | -10
72 | COc1ccc(Nc2nnc(C)c3ccccc23)cc1 | x | 83 | 98 | -31
73 | COCCNC(=O)CCc1c(C)n(C)c2cc(-c3cc(OC)c(OC)c(OC)c3)nn2c1=O | 107 | 78 | 89 | x
74 | CCCc1nnc2n1Nc1nc3ccccc3nc1S2 | 101 | 85 | 107 | -13
75 | Cn1ccc(N2C(=O)c3ccccc3C2=O)n1 | 101 | 88 | 84 | -50
76 | COc1cccc(NC(=O)c2cccc3c2OCCCO3)c1 | 100 | 75 | 60 | 6
77 | N#Cc1ccc(C(=O)N2CCCSC2=NCc2ccccc2)cc1 | x | 95 | 104 | -11
78 | Cc1ccc(-n2nc(C(=O)NCCc3ccc(Cl)cc3)c3c4ccccc4n(C)c3c2=O)cc1 | 101 | 87 | 88 | x
79 | CN(c1ccc(O)cc1)c1nc(S(=O)(=O)c2ccccc2)c(Cl)s1 | x | 42 | 61 | -21
80 | CC(Sc1nc2ncccc2o1)C(=O)N1CCCc2ccccc21 (stereo not drawn) | 103&101 | 82 | 96 | -28&-23
81 | COc1ccc2c(c1OC)C(=O)OC2CC(=O)O (stereo not drawn) | 106 | 86 | 73 | 7
82 | COc1ccc(-c2onc(C)c2C)cc1S(=O)(=O)NCC1CCN(Cc2ccc(F)cc2)CC1 | 96 | 88 | 108 | -9
83 | CCc1ccc(/C=C2/C(=O)N(c3ccc(C)c(C)c3)C(=S)N2C)s1 | 106 | 83 | 120 | x
84 | CN(C)C(=O)C(Cc1ccccc1)N1C(=O)C2C3C=CC(C3)C2C1=O (stereo not drawn) | 104 | 84 | 120 | x
85 | Cn1c(=O)[nH]c(=O)c2[nH]c(N(CCO)CCO)nc21 | 98 | 118 | 113 | 12
86 | O=C(Cn1ccn2nc(-c3ccc(Cl)cc3)cc2c1=O)Nc1ccc(Cl)cc1F | 102 | x | x | -10
87 | O=C(Nc1ccc(N2CCCC2)cc1)c1ccccc1Cl | 106 | 95 | 106 | -9
88 | O=C(OCC(=O)N1CCCC1)c1ccccc1Cc1ccccc1 | x | 90 | 117 | -12
89 | O=C(O)c1cccn2c(=O)c3ccccc3nc12 | 103&102 | 76 | 99 | -38&-98
90 | C/C(=N\NC(=O)c1ccc(Cl)cc1)c1ccc(-n2ccnc2)cc1 | x | 97 | 93 | -6
91 | Cc1ccc(OCC(=O)NCC2(N(C)C)CCCCC2)cc1C | 102 | 90 | 109 | -14
92 | CC12CCC(C(=O)Nc3cccnc3)(OC1=O)C2(C)C (stereo not drawn) | x | 85 | 115 | -18
93 | Cc1ccc(NC(=O)N2CCC(CN3CCCCCC3)CC2)c(Cl)c1 | 109 | 96 | 102 | x
94 | O=C1c2ccccc2-c2c1cnc1c(-c3ccccc3)cnn21 | 100 | 85 | 88 | -33
95 | O=C(Cn1ccc2ccccc2c1=O)NCCC(=O)N1CCCC1 | 100 | 82 | 105 | -22
96 | Clc1ccc(C2=Nn3cnnc3SC2)cc1 | 104 | x | x | -56

Some of these compounds in order of the Sa growth inh second temp value, descending:
nr	mol	Sa growth inh second temp
93	Cc1ccc(NC(=O)N2CCC(CN3CCCCCC3)CC2)c(Cl)c1	96
77	N#Cc1ccc(C(=O)N2CCCSC2=NCc2ccccc2)cc1	95
5	Cc1cc(C)n2c(Nc3ccc4c(c3)OCCO4)c(-c3ccccc3)nc2n1	70

Molecules above containing an NH in an aromatic ring, in the order listed:
nr | Compound | GIV Gai3 FP | Sa growth inh second temp | Sa growth inh | HCMV NEC inh
6 | Brc1cc2c(cc1CSc1nnc(-c3c[nH]c4ccccc34)o1)OCO2 | x | 94 | 84 | -30
28 | CCn1c(SCC(=O)Nc2ccc3[nH]c(=O)[nH]c3c2)nnc1-c1cccs1 | x | 97 | 81 | 22
33 | c1cc2cn[nH]c2cc1NC1CCCCCC1 | 107 | 36 | 67 | 10
42 | Cc1nc2sc(C(=O)NC3CCC(C)CC3)c(C)c2c(=O)[nH]1 (stereo not drawn) | x | 100 | 104 | -15
49 | COc1ccc(CNc2ccc3[nH]c(=O)[nH]c3c2)cc1OC | 101 | 92 | 131 | -12
51 | CC(C)NC(=O)CSc1nc(-c2ccccc2)cc(=O)[nH]1 | 102 | 99 | 102 | -10
85 | Cn1c(=O)[nH]c(=O)c2[nH]c(N(CCO)CCO)nc21 | 98 | 118 | 113 | 12

Reprinted, entries 1 to 3
nr | Compound | GIV Gai3 FP | Sa growth inh second temp | Sa growth inh | HCMV NEC inh
1 | Cn1cc(S(=O)(=O)N2CCCCCC2)cc1C(=O)N1CCN(c2cccc(Cl)c2)CC1 | 101 | 85 | 107 | x
2 | Cc1ccc2nc(N(Cc3cccnc3)C(=O)CCc3ccccc3)sc2c1 | 104 | 90 | 125 | x
3 | Cc1cccc(OCc2nnc(SCC(N)=O)o2)c1 | 104 | 91 | 96 | -29
